Sfp inh = Sfp phosphopantetheinyl transferase inhibition. Q9F4F7. Biochemical Sfp PPTase activity, qHTS. Potency, µM, without a hit: max response, negative = inhibition, hits mostly inhibitors. actives 3.5% (n = 310,000); active = well fitted inhibition curve with a large enough effect; inconclusive = small, poorly fitted or top-dose-only effect, or another doubt; inactive = no such curve, though single readings can be large or run the other way;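 note: the enzyme is Sfp with the accession as filed and its product quenches rhodamine fluorescence; potency is the fitted concentration of half-maximal effect; 0% = enzyme reaction without inhibitor and -100% = no enzyme wells; top concentration of the series not given in the record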
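Fluorescence-quenching assay with 15 nM Sfp, 5 uM rhodamine-CoA and 12.5 uM BHQ-2-labelled ybbR peptide in pH 7.6 Hepes/MgCl2 buffer. Enzyme was pre-incubated with compound for 15 min at room temperature. Rate was taken from the 30-min fluorescence change (525/598 nm).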
ClpP mod = qHTS Assay for Activators of ClpP | actives 1.9% (n = 340,000) | purified B. subtilis ClpP, FRET peptide cleavage, 20 min | ATP-dependent Clp protease proteolytic subunit (Bacillus subtilis (strain 168)), P80244 | Potency, µM (highest dose often 57.5 µM), for inactives: at the top dose activity change, negative = active; active = well fitted falling curve with a large enough effect; inconclusive = small, poorly fitted or top-dose-only effect; inactive = no such curve, though single readings can be large or run the other way; note: potency is the fitted concentration of half-maximal effect; the source files actives as falling curves though it sought activators and does not explain the sign; nearly all actives have a fitted effect of over 65% in size; many hits overshoot -100%
Target sequence (P80244 whole entry, looked up): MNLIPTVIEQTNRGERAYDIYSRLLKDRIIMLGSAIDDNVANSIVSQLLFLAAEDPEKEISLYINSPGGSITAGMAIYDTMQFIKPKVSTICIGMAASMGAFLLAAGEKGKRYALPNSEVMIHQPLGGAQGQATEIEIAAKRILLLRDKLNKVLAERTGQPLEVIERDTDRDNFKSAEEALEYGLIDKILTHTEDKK
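ClpP 10 microg/mL final, pH 8 Tris/KCl buffer with BSA, glycerol, Tween-20; compound pinned in; FRET-FV substrate; RT 20 min; Ex320/Em430; ΔFRET vs ADEP 5.8 microM, DMSO, no enzyme.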
TRPV1 PAM = human TRPV1 potentiation; potentiation, % at 8.33 µM; AID 540277; actives 0.02% (n = 320,000); TRPV1-expressing cells, Fluo-8 calcium influx, capsaicin EC20 potentiation; host cell line not named in the record; control for the full effect not named in the record; active means potentiation above 80%; inconclusive means 30% to 80%; inactive means below 30%; note: 0% is about no effect
Target sequence (Q8NER1 whole entry, looked up): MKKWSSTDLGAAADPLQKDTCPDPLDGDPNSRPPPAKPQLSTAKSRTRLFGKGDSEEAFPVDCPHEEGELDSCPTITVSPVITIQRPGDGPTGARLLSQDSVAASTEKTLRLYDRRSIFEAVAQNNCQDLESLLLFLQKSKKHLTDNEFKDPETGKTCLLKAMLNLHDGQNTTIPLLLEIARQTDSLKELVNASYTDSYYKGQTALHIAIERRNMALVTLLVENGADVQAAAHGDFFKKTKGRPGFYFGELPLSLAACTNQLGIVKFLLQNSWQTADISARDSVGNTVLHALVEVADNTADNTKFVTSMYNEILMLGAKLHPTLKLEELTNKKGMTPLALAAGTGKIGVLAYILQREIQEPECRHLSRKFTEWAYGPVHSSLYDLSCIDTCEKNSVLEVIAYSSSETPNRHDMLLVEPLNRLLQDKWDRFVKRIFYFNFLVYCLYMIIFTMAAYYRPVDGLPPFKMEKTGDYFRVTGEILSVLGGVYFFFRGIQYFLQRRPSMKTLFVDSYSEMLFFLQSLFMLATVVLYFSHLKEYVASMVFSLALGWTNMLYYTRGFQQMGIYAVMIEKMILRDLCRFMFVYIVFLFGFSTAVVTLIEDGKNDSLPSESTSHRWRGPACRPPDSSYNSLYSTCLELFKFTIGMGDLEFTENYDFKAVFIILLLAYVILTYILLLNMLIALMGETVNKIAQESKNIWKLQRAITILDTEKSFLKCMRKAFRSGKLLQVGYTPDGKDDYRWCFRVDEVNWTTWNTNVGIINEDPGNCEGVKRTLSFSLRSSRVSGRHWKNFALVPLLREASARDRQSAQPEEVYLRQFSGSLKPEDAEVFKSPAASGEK
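TRPV1-expressing cells were cultured overnight at 35.5C and loaded with Fluo-8 calcium dye for 40 to 90 min at room temperature. After a 10 s baseline, compound was added and calcium influx was read kinetically for 3 min (ex 480/em 520 nm).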
gsp antag = antagonizes gsp, the McCune-Albright syndrome mutation. actives 0.4% (n = 340,000). Potency, µM (doses to about 76.9 µM), for the others: at the highest dose activity change, negative = inhibition, hits mostly inhibitors. AID 624288. gsp-mutant cells, cAMP HTRF, 30 min; control for the full effect not named in the record; active = falling curve of any shape with a large fitted effect; inconclusive = falling curve, mostly with a smaller effect; inactive = flat or rising curve; cell line not stated here;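 note: intracellular cAMP measured with PDE inhibitor Ro 20-1724 present during compound exposure; potency is the fitted concentration of half-maximal effect; % is set by controls: 0 for no effect and ±100 for the full control effect; nearly all actives have a fitted effect of over 65% in size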
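Measurement of cellular cAMP by homogeneous time-resolved fluorescence following a 30 min compound exposure at 37C. The PDE inhibitor […] was present throughout; the assay buffer was DPBS with 0.05% BSA and 0.005% Tween 20.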
Menin MLL FP FL = menin-MLL binding inhibition, fluorescein peptide. Fluorescence polarization, fluorescein-MLL peptide displacement from menin. FP activity change, % at 61.4 µM. 290,000 tested, under 10 active; inconclusive = falling polarisation curve, or a change in total fluorescence; inactive = total fluorescence flat and polarisation flat or rising; no compound was filed as active; the % refers to the polarisation; negative = inhibition;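 note: % of control where 0% means no effect; inhibitors lower the polarisation; unlabelled MLL peptide was the positive control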
gsp agonist = agonists of gsp mutant (McCune-Albright syndrome). Potency, µM (highest dose often 76.9 µM), for the others: top-dose activation (cAMP increase), most hits filed as activators. gsp mutant cells, cAMP HTRF, 30 min; control for the full effect not named in the record. actives 0.13% (n = 340,000); active = well fitted activation curve with a large enough effect; inconclusive = small, poorly fitted or top-dose-only effect, or another doubt; inactive = no such curve, though single readings can be large or run the other way; cell line not stated here;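 note: phosphodiesterase inhibitor Ro 20-1724 added with compounds to block cAMP breakdown; potency is the fitted concentration of half-maximal effect; nearly all actives have a fitted effect of over 60% in size; about a fifth of the inactives were tested at one dose only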
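Cells in DMEM/10% FBS with G418 were pretreated with compounds in DMSO plus […] (300 uM stock) for 30 min at 37C. cAMP was measured by HTRF (cAMP-d2 plus anti-cAMP antibody-K) after 30 min at room temperature.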
D2 potentiator = positive allosteric modulators of human D2 dopamine receptor | potentiation, % (no concentration beside the values) | P14416 | actives 0.23% (n = 360,000) | AID 624464 | DiscoveRx D2 beta-arrestin cells, luminescence, 90 min; 100% = 57 uM dopamine signal; active = potentiation of 50% or more; inconclusive = 30% to 50%; inactive = 30% or less;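 note: compound concentration not given in the record; tested on top of an EC20 dose of dopamine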
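D2 cells co-treated with compound plus 50 nM dopamine (EC20) for 90 min at 37 deg C to detect potentiation. Beta-arrestin recruitment was read as enzyme-fragment luminescence after 1 h at ambient temperature. Full response was set by 57 uM dopamine.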
* marks the source's active call; other numbers are inactive results; ? = inconclusive; . = not tested or not shown; & = joins results of further samples; [ ] = dose if it differs, or a comment. Compounds as they come; any-hit rate near 5.1%.

molecule,gsp agonist,gsp antag,TRPV1 PAM,Sfp inh,Menin MLL FP FL,ClpP mod,D2 potentiator
CCOC(=O)COc1c(OC)cc(Cl)cc1C1Nc2ccccc2C(=O)N1c1ccccc1 (stereo not given),-53%[inhibitor],-1%,-4,17%,0.4,28µM*,-6
O=C(CCCN1C(=O)/C(=C\c2cccs2)SC1=S)Nc1ccccn1,-1%[15.4 µM],-25%,4,15%,0.6,.,-3
O=C(COC(=O)c1ccc(O)cc1O)NC(=O)NCc1ccccc1,?,-6%,-3,.,.,-0.8%,2
O=C(NCCN1CCOCC1)c1ccc2c(c1)N(Cc1ccc(Cl)cc1)C(=O)CS2,23%,-7%,-2,11%,0.8,.,-4
Cc1ccc(C)c(NC(=S)NC(NC(=O)OCc2ccccc2)C(Cl)(Cl)Cl)c1 (stereo not given),15%,0%,15,15%,3.6,-1.7%,-27
O=C(Nc1ccccc1)c1cn2ccccc2n1,-18%,0%,15,10%,3.2,-0.5%,-4
CCCCOC(=O)Nc1nc(CC(=O)OCC)cs1,-38%,-8%,-2,16%,-0.1,1.5%,-3
Cc1ccc(C(=O)CC(SCC(=O)O)c2ccc([N+](=O)[O-])cc2)cc1 (stereo not given),-13%,15%,-20,-16%,-11,0.6%,-4
CC1(C)CC(NC(=O)Nc2ccc([N+](=O)[O-])cc2)CC(C)(C)N1,2%[15.4 µM],-1%,-5,-1%,-1.8,.,1
COCCNC(=O)/C(C#N)=C/c1ccc2c(c1)OCO2,?,-4%,3,7%,-6.2,.,-8
O=C(NCc1ccccc1)NC1(C(=O)N2CCN(c3ncccn3)CC2)CCCCC1,1%,14%,7,12%,2.2,-14%,3
COc1ccc(S(=O)(=O)Nc2cc3c4c(oc3c3ccccc23)CC(C)(C)CC4=O)cc1,?,-9%,-12,2%,6.3,-1.4%,?
Cc1ccc(S(=O)(=O)NC(CC(=O)NCc2ccco2)c2ccco2)cc1 (stereo not given),6%,3%,-1,-14%,-1.6,-3.1%,-6
Cc1cccnc1,.,-1%,-1,.,.,0.7%,-1
Cc1ccc(NC(=O)CCC(=O)NNC(=O)Cc2ccccc2)cc1C,-1%,3%,.,10%,4.9,-5.2%,-26
N#Cc1cc(Cl)c(NCC2CCCO2)cc1C#N (stereo not given),?,-6%,5,6%,5.3,.,0
CC(C)CNC(=O)C1CCN(S(=O)(=O)c2ccc(-n3cnnn3)cc2)CC1,8%[15.4 µM],0%,-2,-2%,0.9,.,0
CCN(CC)c1ccc2cc(C(=O)Nc3cccnc3N3CCOCC3)c(=O)oc2c1,.,.,-2,1%,9.4,.,.
Cc1c(C)c2ccc(OCC(=O)NCc3ccccn3)cc2oc1=O,22%,13%,-15,28%,?,3.9%,0
Cc1ccccc1OC(=O)Cn1c(C(F)(F)F)nc2ccccc21,-17%,8%,4,-3%,6.1,?,-4
Cc1ccc(-n2nnnc2SCC(=O)NCC2(N3CCCCC3)CCCCC2)c(C)c1,4%,-4%,23,.,.,-2.1%,-9
CCCCCC1CCC(C(=O)N2CCOCC2)CC1 (stereo not given),8%[15.4 µM],-8%,0,-6%,-1.2,-5.1%,-12
CCCCNC(=O)Cn1cnc([N+](=O)[O-])n1,-6%,61%[activator],6,14%,-1.9,-0.2%,-9
COc1ccc(CCN(C)C(=O)COC(=O)/C=C/c2ccc(C)o2)cc1OC,0%,6%,0,.,.,17%,6
Cc1ccc(C(=O)NCc2ccc(Cl)c(Cl)c2)o1,-46%[inhibitor],6%,-15,-2%,-1.4,0.0%,-11
Nc1ccccc1-n1cccc1,-27%,1%,3,18%,4.7,.,-5
COc1cccc(/C=N/NC(=O)c2ccc(COc3ccc(Cl)cc3Cl)o2)c1,-18%,-7%,8,0.79µM*,7.7,224%,-1
COc1ccc(NC(=O)C[C@H]2C(=O)N(Cc3ccccc3)C[C@@H]2C)cc1,-49%[inhibitor],.,.,.,.,0.9%,2
O=S(=O)(c1ccccc1)N1CCN(c2nc3ccccc3s2)CC1,0%,-5%,10,12%,4.8,-0.3%,-23
O=C(CCCN1C(=O)c2ccccc2C1=O)N1CCOCC1,-16%,8%,10,23%,-2.4,.,1
Cc1ccc(S(=O)(=O)N2CCC(=O)N(CCOC(=O)Nc3ccc(C)c(C)c3)CC2)cc1,.,-11%,7,?,-0.8&-1.0,2.2%,-5
OCC1(CCc2ccccc2)CCN(Cc2cnc(N3CCCC3)s2)CC1,?,8%,-1,50µM*,1.6,-0.9%,-34
N/C(=N\OC(=O)CCC(=O)O)c1ncc(C(F)(F)F)cc1Cl,-39%[inhibitor],-6%,4,15%,1.6,.,-6
Cc1ccnc(-n2c(C)cc(C=O)c2C)c1,?,-20%,10,0%,-4.5,-1.4%,-1
C=CCc1c(O)nc(SCC(=O)c2ccccc2)[nH]c1=O,19%,-6%,-3,?,4.3,-0.6%,3
CC1CCN(C(=O)CN(C2CCCCC2)S(C)(=O)=O)CC1,20%,-4%,-10,12%,-0.5,-1.7%,18
CCCNC(=O)NC(=O)CN1C(=O)NC(C)(c2ccc3ccccc3c2)C1=O (stereo not given),13%[15.4 µM],-21%,-1,-1%,-2.0,-0.1%,-9
CCN1CCN(c2cc(C)c3cc(NC(=O)c4cc(OC)cc(OC)c4)ccc3n2)CC1,-47%[inhibitor],5%,19,7%,-3.9,-9.7%&-9.8%,-28
O=C(NCc1ccccn1)c1ccc(N2CCCC2=O)cc1,1%,3%,1,2%,1.9,-2.9%,0
CC(C)C[C@H]1CNC(=O)C(=O)N1CC1CCN(CCc2ccc(-c3ccccc3)cc2)CC1,.,-6%,.,.,.,-1.8%,-15
Cc1ccc(CSc2nncn2-c2ccccn2)cc1,-33%[inhibitor],2%,2,23%,2.6,-4.4%,1
CCN(CC(=O)Nc1c(F)cccc1F)C(=O)C1CC(=O)N(CCc2ccccc2)C1 (stereo not given),62%[15.4 µM],2%,-31,.,.,.,-13
COc1cc(CNC(C)(C)C)cc(Br)c1OCc1cccs1,27%,-10%,14,9%,-0.5,-5.0%,-38
Cc1nc(C(C)N(C)Cc2nc(Cc3ccccc3F)no2)c(C)s1 (stereo not given),16%[15.4 µM],4%,-2,11%,1.2,.,-5
CN1OC2C(=O)N(c3ccccc3)C(=O)C2C1c1ccc(F)cc1 (stereo not given),24%,12%,-14,9%,-1.2,0.6%,-5
CSc1nc2c(c(=O)[nH]1)C(c1cccs1)C1=C(CCCC1=O)N2 (stereo not given),-5%,-6%,-1,6%,2.2,22µM*,6
Cc1cc(C)n2nc(SCC(=O)N(C)c3c(N)n(Cc4ccccc4)c(=O)[nH]c3=O)nc2n1,.,.,16,16%,-3.8,.,.
CCOC(=O)C(CCC(C)=O)C(=O)c1ccccc1 (stereo not given),9%,3%,-6,23%,1.1,-1.9%,-7
CCOC(=O)c1ccc(C(=O)OCC)nc1,-35%[inhibitor],14%,-15,-7%,1.0,-2.6%,-18
Cc1cccc(Nc2nc(NCc3ccco3)c3ccccc3n2)c1,-37%[inhibitor],-14%,-12,2.5µM*,9.5,20µM*,-24

(listing goes on)
molecule,gsp agonist,gsp antag,TRPV1 PAM,Sfp inh,Menin MLL FP FL,ClpP mod,D2 potentiator
Cc1ccc(N2CC(C(=O)O)CC2=O)cc1 (stereo not given),-10%[15.4 µM],3%,3,-4%,2.7,.,-3
O=P(OC1CCCCC1)(OC1CCCCC1)C(Nc1ccccc1)c1cccnc1 (stereo not given),-8%[15.4 µM],-10%,-29,8%,1.3,.,0
O=C(O)/C=C/c1cn(-c2ccccc2)nc1-c1ccc2c(c1)OCCO2,-28%[15.4 µM],?,3,7%,0.4,.,-2
CCOC(=O)C(=CNc1cscc1S(=O)(=O)C(C)C)C(=O)OCC,21%,-3%,-3,7%,-17,.,2
Cc1ccc(NC(=O)CNCc2ccccn2)cc1S(=O)(=O)N(C)C,?,-6%,-2,-14%,0.7,.,-5
O=C(N/N=C/c1ccncc1)c1cc(Br)ccc1OCc1ccccc1,-5%[15.4 µM],-8%,-5,-12%,2.4,.,-7
CCCCN(C)C(=O)c1nc2ccccn2c1CN1CCC[C@H]1CO,-38%[inhibitor],10%,9,18%,-12,.,1
CC(C)(C)[C@H]1C=C(C(=O)Nc2ccccc2)O[C@@H](OCc2ccc(CO)cc2)C1,0%,-26%,-7,2%,-4.0,-3.3%,-12
COc1ccc(C(=O)C2CCCN(Cc3c(O)cccc3OC)C2)cc1OC (stereo not given),-11%,13%,22,17%,1.7,.,-24
COC(=O)c1cccc(NC(=O)c2cccs2)c1C,-2%,-5%,-9,-4%,-2.0,-0.5%,-8
CO/N=C/NC(=O)N1OC[C@@H]2COc3ccc4ccccc4c3[C@@H]21,1%,-6%,-17,5%,-0.9,-4.2%,-6
Cc1ccc2c(C(=O)CN3CCCCC3CCO)c(C)[nH]c2c1 (stereo not given),-10%,4%[15.4 µM],-10,0%,3.8,3.2%,-10
CN1Cc2c(N3CCOCC3)nc(SCc3ccccc3)c(C#N)c2CC1(C)C,16%,2%,-15,?,?,0.6%,-8
O=C(Cn1c(N2CCN(C/C=C/c3ccccc3)CC2)nc2ccccc21)c1ccccc1,.,.,-41,10%,0.4,.,.
CCCNc1ncnc2nc[nH]c12,19%,3%,-7,4%,-1.3,0.5%,-7
Cc1nc2c(nnn2Cc2ccccc2)c(=O)[nH]1,8%[15.4 µM],6%,13,3%,-0.7,.,-9

High-throughput results: PubChem, National Center for Advancing Translational Sciences (NCATS)
